Source: PubChem (several laboratories)
Beta apoptosis = beta cell apoptosis inhibition; INS-1E cytokine-induced death, ATP luminescence, 48 h; percent of positive-control rescue, neutral wells zero; protection from apoptosis, % (concentration not given with the values); 300,000 compounds, 0.8% hits; AID 435005;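 active means all replicates at 75% or more, or half of them and the mean; inconclusive means half reach 75% but not the mean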;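 further: 0% = cytokine-treated negative control wells and 100% = positive control rescue; higher means more ATP so stronger rescue from cytokine killing; wells of about 40 µL received 100 nL stock; the first replicate is given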
T cruzi inh = blocks replication of Trypanosoma cruzi | T. cruzi beta-gal in NIH3T3, luminescence, 90 h | inhibition, % (test concentration not listed) | 300,000 compounds, 1.4% hits;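 active means mean inhibition across valid replicates above about 55%, limit read from the data; inconclusive means mean below that limit but half or more replicates reach it; inactive means mean below it, under half of replicates reach it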;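 further: signal also drops with host cell toxicity which is not excluded here; 0% = plate median of DMSO wells and 100% = zero luminescence signal; higher percent means less beta-gal luminescence so fewer parasites; stock transfer was 50 nL into about 50 µL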
Calb FLC = C. albicans growth modulation with fluconazole | AID 1979 | growth inhibition, % (test concentration not listed) | C. albicans CaCi-2 (fluconazole-resistant clinical isolate) + fluconazole, Alamar Blue growth, 48 h | 300,000 compounds, 0.57% hits;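 active means most replicates above 75%; inconclusive means exactly half above 75%; inactive means most below 75%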;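 further: all wells also contain fluconazole at 8 µg/ml as a sub-toxic cotreatment; 0% = median of DMSO wells and 100% = median of geldanamycin control wells; wells of about 8 µL received 7.5 nL stock; the first replicate is given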
B2AR ag = activates human beta-2 adrenergic receptor causing internalization; Am2.2-beta2AR cells, FAP receptor internalization, flow cytometry; reference of the scale not given here; P07550; response, % (test concentration not listed); 340,000 compounds, 0.43% hits;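 active means response above a set limit, near 3 SD of response in nonfluorescent compounds, cut at about 42% in these data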;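 further: stock transfer was 100 nL into about 11 µL; a reference agonist was the positive control; negative values mostly stem from fluorescent compounds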
Target sequence (P07550 whole entry, looked up): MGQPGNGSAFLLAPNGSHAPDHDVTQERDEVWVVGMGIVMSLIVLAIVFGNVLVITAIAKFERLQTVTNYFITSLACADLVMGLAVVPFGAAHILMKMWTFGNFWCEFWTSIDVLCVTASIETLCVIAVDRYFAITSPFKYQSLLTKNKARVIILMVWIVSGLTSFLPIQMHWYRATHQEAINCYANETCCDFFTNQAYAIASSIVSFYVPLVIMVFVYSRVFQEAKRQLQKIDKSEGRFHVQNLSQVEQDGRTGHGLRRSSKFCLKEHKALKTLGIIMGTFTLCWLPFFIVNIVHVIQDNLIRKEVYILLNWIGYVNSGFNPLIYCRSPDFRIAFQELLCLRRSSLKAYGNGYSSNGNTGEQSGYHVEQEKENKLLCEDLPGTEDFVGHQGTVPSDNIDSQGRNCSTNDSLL
RanGTP-Impb inh = disruptors of Ran-importin-beta complex formation – biochemical, FRET, CFP-Ran, YFP-importin-beta, homogeneous, primary screen; cell-free CFP-Ran/YFP-importin-beta FRET ratio; inhibition, % (no concentration beside the values); 300,000 compounds, 1.1% hits; AID 2216;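 active means most replicates above 15%; inconclusive means exactly half above 15%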;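 further: 0% = DMSO wells and 100% = Ran loaded with GDP instead of GTP; wells of about 40 µL received 100 nL stock; the first replicate is given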
A1 inh = inhibitors of the anti-apoptotic protein A1, read as caspase activation; MEF A1-2A-BIM cells, Caspase-Glo 3/7 luminescence, 3 h; percent of clofoctol response, vehicle zero; caspase activation, % (no concentration beside the values); 330,000 compounds, 0.066% hits;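 active means over half of replicate activation scores above 10%, or exactly half above 10 with the replicate mean above 10; inconclusive means replicate mean below 10 yet half the replicates above 10; inactive means over half of replicates below 10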;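 further: wells of about 30 µL received 50 nL stock; many hits fall short of the cut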
LANA-H2A inh = blocks KSHV LANA binding to histone H2A/H2B | cell-free LANA-H2A/H2B peptide, fluorescence polarization | inhibition, % (test concentration not listed) | 320,000 compounds, 0.6% hits; in the data active means inhibition mostly above about 10%, no sharp cut-off; inactive means mostly below about 6.7%;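 further: stock transfer was 7.5 nL into about 10 µL; 0% = median of vehicle wells and 100% = median of positive control wells; one replicate is shown; the record names a cut of 25% in any replicate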
UCH37 inh = inhibitors of human deubiquitinating enzyme UCH37. Q9Y5K5. purified proteasome/UCH37, Ub-AMC cleavage fluorescence. inhibition, % (test concentration not listed). 330,000 compounds, 0.33% hits. AID 588478;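 active means mean of two replicates above 20%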;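 further: 0% = compound-free wells with enzyme and 100% = wells lacking proteasome; stock transfer was 100 nL into about 20 µL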
Target sequence (Q9Y5K5 whole entry, looked up): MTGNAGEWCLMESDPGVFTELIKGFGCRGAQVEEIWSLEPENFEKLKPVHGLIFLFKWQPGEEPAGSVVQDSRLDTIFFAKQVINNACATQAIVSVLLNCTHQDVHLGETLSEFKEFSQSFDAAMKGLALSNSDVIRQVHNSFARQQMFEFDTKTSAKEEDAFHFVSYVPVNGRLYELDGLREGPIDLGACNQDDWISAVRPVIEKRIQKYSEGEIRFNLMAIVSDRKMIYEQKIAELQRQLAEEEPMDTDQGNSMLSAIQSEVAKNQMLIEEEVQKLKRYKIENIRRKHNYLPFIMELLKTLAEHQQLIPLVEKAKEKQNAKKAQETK
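assay system = human UCH37 enzyme supplied as purified proteasome complex | amount = proteasome at 0.15 nM in the dispensed enzyme solution | schedule = 30 min compound-proteasome preincubation then 25 min substrate reaction, room temperature | measured by = fluorescence, ex 355 nm, em 460 nm | benchmarks = no-proteasome wells (full inhibition) and compound-free wells (no inhibition)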
* marks the source's active call; other numbers are inactive results; ? = inconclusive; . = not tested or not shown.

SMILES	Beta apoptosis	T cruzi inh	Calb FLC	B2AR ag	RanGTP-Impb inh	A1 inh	LANA-H2A inh	UCH37 inh
O=C(O)C(Cc1c[nH]c2ccccc12)NS(=O)(=O)c1ccc2ccccc2c1 (stereo not given)	0.6	-9.9	-10.1	3.1	0.3	0.4	-4.6	2.4
O=C(O)c1ccc(N/N=C/c2ccc(-c3ccccc3)cc2)cc1	.	4.6	35.1	13.4	4.9	.	.	.
O=C(O)C(Cc1c[nH]c2ccccc12)NS(=O)(=O)c1cccc2nsnc12 (stereo not given)	-4.7	-49.1	-3.4	18.3	-4.4	0.2	-1.2	7.2
C=CCNC(=O)/C(C#N)=C/c1c(C)nn(-c2ccc(Cl)cc2)c1Cl	-11.5	0.7	-12.1	5.4	8.0	0.5	-4.3	2.5
CN1CCN(c2ccc(NC(=S)NC(=O)/C=C/c3ccco3)cc2)CC1	2.7	25.3	-5.5	-11.4	0.1	-1.4	7.1	14.9
O=C(Nc1ccc(Cl)cc1)Nc1nnc(CSCc2ccccc2Cl)s1	36.4	-1.0	3.0	6.3	0.5	0.1	6.4	2.0
O=c1c2cccnc2n(-c2ccccc2)n1Cc1c(Cl)cccc1Cl	.	-13.9	-9.1	6.4	-1.3	1.1	-0.2	-17.0
COc1cccc(/C=C/C(=O)OCC(=O)Nc2ccc(Cl)cn2)c1	-0.5	-0.7	-9.5	-5.0	5.3	0.9	0.8	.
CCC(Sc1ncccc1Nc1ccccn1)C(=O)O (stereo not given)	.	.	-12.8	0.0	10.4	4.2	3.8	-0.2
Fc1ccc(N/N=C2/CCSc3sccc32)c(F)c1	-5.8	1.2	-2.0	18.6	-0.2	-0.5	5.9	.
Nc1nc2c(nc(SCc3ccccc3Br)n2C2OC(CO)C(O)C2O)c(=O)[nH]1 (stereo not given)	.	-11.0	-17.1	-3.1	-0.3	-0.4	2.4	-0.8
CN(C)c1nc(N/N=C\c2ccc(Cl)c([N+](=O)[O-])c2)nc(Nc2ccc(F)cc2)n1	-0.2	38.8	18.5	10.3	-4.0	-0.7	-0.5	.
COc1ccc(OC)c(-c2nc(C(=O)NCCCN3CCOCC3)cc3c2[nH]c2ccccc23)c1	-0.5	24.0	6.8	-16.5	?	0.1	0.7	-20.6
Cc1ccc(Sc2cnc(N)nc2C)cc1	-7.3	1.6	1.0	-4.4	-3.6	0.0	-3.3	1.4
COc1cc(C(=O)NC2CCN(Cc3nnnn3Cc3ccc(F)cc3)CC2)cc(OC)c1OC	0.5	21.2	11.5	-9.0	1.9	0.7	1.1	3.1
O=C(Nc1ccc2nc3n(c(=O)c2c1)CCCC3)c1cccnc1Cl	5.2	-5.1	-3.6	1.2	-5.0	-0.5	3.4	4.4
CCCc1cc(C(=O)Cc2ccccn2)c(O)cc1O	1.1	2.0	7.2	-4.0	1.5	1.0	-2.7	-0.6
O=C(CSc1ccccn1)Nc1ccc(NC(=O)CSc2ccccn2)cc1	-1.7	12.3	0.0	-6.8	1.6	0.2	6.8	-0.2
CCn1cc(C(=O)NCCCN2CCCC(C)C2)c(=O)c2cc(S(=O)(=O)N3CCOCC3)ccc21 (stereo not given)	-7.6	-1.0	-5.3	5.6	-0.5	-0.6	-4.5	7.2
CN(CC(=O)Nn1cnnc1)S(=O)(=O)c1cc(Cl)ccc1Cl	-4.5	-3.2	-7.2	-0.9	1.1	0.1	-1.2	1.7

Profiles, looked up by structure.
Shown for CCC(Sc1ncccc1Nc1ccccn1)C(=O)O (stereo not given) = Beta apoptosis: .; T cruzi inh: .; Calb FLC: -12.8; B2AR ag: 0.0; RanGTP-Impb inh: 10.4; A1 inh: 4.2; LANA-H2A inh: 3.8; UCH37 inh: -0.2
Shown for O=c1c2cccnc2n(-c2ccccc2)n1Cc1c(Cl)cccc1Cl = Beta apoptosis: .; T cruzi inh: -13.9; Calb FLC: -9.1; B2AR ag: 6.4; RanGTP-Impb inh: -1.3; A1 inh: 1.1; LANA-H2A inh: -0.2; UCH37 inh: -17.0

Other structures follow:
SMILES	Beta apoptosis	T cruzi inh	Calb FLC	B2AR ag	RanGTP-Impb inh	A1 inh	LANA-H2A inh	UCH37 inh
O=C(NC1CCCCC1)C1CCN(S(=O)(=O)c2cccc3cccnc23)CC1	3.4	-19.2	-4.4	-9.5	3.8	0.0	-0.1	6.8
Cc1ccc2nc(NC(=O)c3ccccn3)sc2c1	79.0*	69.3*	-32.9	2.1	0.0	-8.6	-5.1	-15.2
O=C(c1ccc(-n2cncn2)c([N+](=O)[O-])c1)N1CCN(S(=O)(=O)c2ccccc2F)CC1	-4.8	-0.4	7.4	-4.4	3.7	0.6	-10.3	1.2
CCCCCCN(C(=O)CCCCCN1C(=O)NC(c2ccc(-c3ccccc3)cc2)C(C(=O)OCc2ccccc2)=C1C)C(C(=O)NCCCC)c1ccccn1 (stereo not given)	.	50.9	-0.5	.	3.3	.	.	2.4
CCCNC(=S)Nc1ccc(S(N)(=O)=O)cc1	-1.2	2.2	?	1.0	3.8	0.8	-4.2	7.4
CCSc1ncc(Cl)c(C(=O)Nc2ccccc2C)n1	-2.3	8.6	3.4	-3.7	1.1	-0.2	-5.1	2.2
O=c1c2oc3ccccc3c2[nH]c(=S)n1-c1ccccc1	-6.5	-16.7	12.3	-0.6	2.9	-0.7	-1.9	3.2
Cc1ccc(NC2c3ncccc3C(=O)N2Cc2ccc(F)cc2)cc1 (stereo not given)	-5.8	3.5	-3.8	-15.3	5.6	0.3	-0.1	4.7
NC(=S)NNC(=O)c1cccc(Br)c1	-1.8	-5.6	-3.4	.	?	0.6	1.2	0.9
CCOC(=O)C1(CCc2ccccc2)CCN(C(=O)Cc2nonc2C)CC1	.	7.1	29.5	0.0	-1.5	-0.8	2.5	4.0
CCCC(NC(=O)c1ccccc1)c1nc2ccccc2n1Cc1ccc(C(=O)OC)o1 (stereo not given)	6.7	-7.0	3.3	0.7	7.1	-0.3	-3.6	1.5
Cc1cccc(OCc2n[nH]c(=S)n2C2CCCCC2)c1	-2.4	7.9	-2.5	-1.1	10.1	0.3	-0.8	-0.4
O=C(c1cc2ccccc2o1)N1CCN(c2cccc(C(F)(F)F)c2)CC1	-7.4	-8.4	3.7	-0.9	1.9	-1.4	-1.3	-1.3
O=C(Nc1cccc2nsnc12)c1cccnc1	-12.6	0.4	-8.2	-2.6	-2.4	-1.0	-1.5	-5.1
Cc1csc2nc(O)c(C(=O)NCc3ccc4c(c3)OCO4)c(=O)n12	-2.3	8.5	-4.2	4.4	3.5	-0.3	.	0.7
COc1ccc(NC(=O)c2cccc(NC(=O)c3ccccc3)c2)c(OC)c1	1.8	-2.2	17.6	1.4	2.6	0.0	1.3	1.7
COc1ccc(NC(=O)N2CCN(C(=O)C3CCCO3)CC2)cc1 (stereo not given)	-15.2	8.6	.	-6.3	.	-0.4	-1.8	0.4
CCn1cc(/C=N\NC(=O)c2ccc3c(c2)c(C)c(C)n3Cc2ccccc2)c(C)n1	-8.0	-7.1	-12.7	-1.8	-5.9	-0.1	0.9	.
CN(C(=O)CC1C(=O)NCCN1Cc1ccc(F)c(F)c1)C1CCCCC1 (stereo not given)	-8.3	-5.2	7.4	14.6	1.0	0.0	0.0	-30.1
COc1ccccc1CNC(=O)COc1cc2c(c3oc(=O)cc(C)c13)CCC(C)(C)O2	.	27.9	-0.2	-6.4	?	-0.8	-9.6	-208.0

At a glance, part of the list above.
SMILES	Beta apoptosis	T cruzi inh	Calb FLC	B2AR ag	RanGTP-Impb inh	A1 inh	LANA-H2A inh	UCH37 inh
COc1ccc(NC(=O)N2CCN(C(=O)C3CCCO3)CC2)cc1 (stereo not given)	-15.2	8.6	.	-6.3	.	-0.4	-1.8	0.4
CCn1cc(/C=N\NC(=O)c2ccc3c(c2)c(C)c(C)n3Cc2ccccc2)c(C)n1	-8.0	-7.1	-12.7	-1.8	-5.9	-0.1	0.9	.
CN(C(=O)CC1C(=O)NCCN1Cc1ccc(F)c(F)c1)C1CCCCC1 (stereo not given)	-8.3	-5.2	7.4	14.6	1.0	0.0	0.0	-30.1
COc1ccccc1CNC(=O)COc1cc2c(c3oc(=O)cc(C)c13)CCC(C)(C)O2	.	27.9	-0.2	-6.4	?	-0.8	-9.6	-208.0

Next records
SMILES	Beta apoptosis	T cruzi inh	Calb FLC	B2AR ag	RanGTP-Impb inh	A1 inh	LANA-H2A inh	UCH37 inh
CC(=O)N(C)C1=C(O)c2ccccc2C(=O)C1=O	-4.9	-12.2	-1.7	1.6	4.3	0.3	-1.6	8.6
CC(C)c1ccc(NC(=S)NCCc2c[nH]c3ccccc23)cc1	2.3	35.3	-9.0	8.1	?	0.3	-0.8	3.4
O=C1Nc2ccccc2N(O)N1c1cc(-c2ccccc2Cl)no1	-3.7	-8.1	2.6	-0.9	-0.2	-3.3	1.0	-0.7
CCC(C)c1ccccc1NC(=O)c1cc(C)no1 (stereo not given)	3.1	5.6	-2.9	9.1	0.3	0.4	-1.0	1.7
CCCOc1ccc(/C=N/Nc2cc(N3CCOCC3)ncn2)c(O)c1	91.3*	3.1	13.5	-2.1	4.1	0.0	1.8	.
Cc1cc(=O)[nH]c(SCC(=O)N2CCCC2)n1	0.7	.	.	8.0	.	-0.2	-1.9	-0.4
CC(C)OC(=O)NC(c1ccccc1)C(Cl)(Cl)Cl (stereo not given)	-2.2	-21.0	-20.9	-2.8	-1.6	0.9	-0.2	1.6
CCc1ccccc1NC(=S)NC1CC2CCCC(C1)N2Cc1cccs1 (stereo not given)	-11.6	7.5	-29.9	6.7	0.7	-0.4	-2.3	2.5
Cc1ccc(S(=O)(=O)N2CCN(Cc3cccc(C)c3O)CC2)cc1	-5.1	4.9	-8.5	-0.9	5.3	0.1	-2.3	0.0
COCc1c(C(=O)OC)nnn1-c1ccc(C(F)(F)F)cc1[N+](=O)[O-]	-0.2	-3.3	10.8	-3.3	-1.4	0.6	-2.1	-0.2

Look-ups from the list:
For A1 inh, `Cc1ccc(S(=O)(=O)N2CCN(Cc3cccc(C)c3O)CC2)cc1` shows 0.1
For Beta apoptosis, `Cc1cc(=O)[nH]c(SCC(=O)N2CCCC2)n1` shows 0.7
